Bioassay records (PubChem)
AF4-AF9 inh: MLL-AF4/AF9 protein interaction inhibition; AlphaScreen, biotin-AF4 peptide binding to FLAG-AF9; inhibition, % at 10 µM; actives 0.47% (n = 350,000); AID 651704;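 active = every replicate reaching a set inhibition limit, whatever the replicate mean, cut at about 25% in these data; inconclusive = mean inhibition reaches that limit but some replicates miss it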;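 also: 0% = plate neutral control median and 100% = total signal loss; the record names both 10 and 1 µM as test concentration; the first replicate is given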
Calb FLC: affects C. albicans growth with fluconazole; actives 0.57% (n = 300,000); growth inhibition, % (concentration not given with the values); C. albicans CaCi-2 (fluconazole-resistant clinical isolate) + fluconazole, Alamar Blue growth, 48 h;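 active = most replicates above 75%; inconclusive = exactly half above 75%; inactive = most below 75%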;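 also: all wells also contain fluconazole at 8 µg/ml as a sub-toxic cotreatment; 0% = median of DMSO wells and 100% = median of geldanamycin control wells; wells of about 8 µL received 7.5 nL stock; the first replicate is given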
T cruzi repl: blocks replication of Trypanosoma cruzi | T. cruzi beta-gal in NIH3T3, luminescence, 90 h | inhibition, % (no concentration beside the values) | actives 1.4% (n = 300,000) | AID 1885;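 active = mean inhibition across valid replicates above about 55%, limit read from the data; inconclusive = mean below that limit but half or more replicates reach it; inactive = mean below it, under half of replicates reach it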;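 also: signal also drops with host cell toxicity which is not excluded here; 0% = plate median of DMSO wells and 100% = zero luminescence signal; higher percent means less beta-gal luminescence so fewer parasites; stock transfer was 50 nL into about 50 µL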
Beta cell apopt: blocks beta cell apoptosis. actives 0.8% (n = 300,000). INS-1E cytokine-induced death, ATP luminescence, 48 h; percent of positive-control rescue, neutral wells zero. protection from apoptosis, % (concentration not given with the values). AID 435005;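 active = all replicates at 75% or more, or half of them and the mean; inconclusive = half reach 75% but not the mean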;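 also: 0% = cytokine-treated negative control wells and 100% = positive control rescue; higher means more ATP so stronger rescue from cytokine killing; wells of about 40 µL received 100 nL stock; the first replicate is given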
RanGTP-Impb inh: inhibitors of RanGTP-importin-beta interaction, primary screen, biochemical, FRET, CFP-Ran, YFP-importin-beta, homogeneous; cell-free CFP-Ran/YFP-importin-beta FRET ratio; inhibition, % (no concentration beside the values); actives 1.1% (n = 300,000);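 active = most replicates above 15%; inconclusive = exactly half above 15%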;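 also: 0% = DMSO wells and 100% = Ran loaded with GDP instead of GTP; wells of about 40 µL received 100 nL stock; the first replicate is given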
A1 inh: inhibitors of the anti-apoptotic protein A1, read as caspase activation | AID 2462 | caspase activation, % (test concentration not listed) | MEF A1-2A-BIM cells, Caspase-Glo 3/7 luminescence, 3 h; percent of clofoctol response, vehicle zero | actives 0.066% (n = 330,000);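 active = over half of replicate activation scores above 10%, or exactly half above 10 with the replicate mean above 10; inconclusive = replicate mean below 10 yet half the replicates above 10; inactive = over half of replicates below 10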;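 also: wells of about 30 µL received 50 nL stock; many hits fall short of the cut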
LANA-H2B inh: blocks KSHV LANA binding to histone H2A/H2B. Q9QR71. inhibition, % (concentration not given with the values). cell-free LANA-H2A/H2B peptide, fluorescence polarization. actives 0.6% (n = 320,000); in the data active = inhibition mostly above about 10%, no sharp cut-off; inactive = mostly below about 6.7%;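 also: stock transfer was 7.5 nL into about 10 µL; 0% = median of vehicle wells and 100% = median of positive control wells; one replicate is shown; the record names a cut of 25% in any replicate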
Target sequence (Q9QR71 whole entry, looked up): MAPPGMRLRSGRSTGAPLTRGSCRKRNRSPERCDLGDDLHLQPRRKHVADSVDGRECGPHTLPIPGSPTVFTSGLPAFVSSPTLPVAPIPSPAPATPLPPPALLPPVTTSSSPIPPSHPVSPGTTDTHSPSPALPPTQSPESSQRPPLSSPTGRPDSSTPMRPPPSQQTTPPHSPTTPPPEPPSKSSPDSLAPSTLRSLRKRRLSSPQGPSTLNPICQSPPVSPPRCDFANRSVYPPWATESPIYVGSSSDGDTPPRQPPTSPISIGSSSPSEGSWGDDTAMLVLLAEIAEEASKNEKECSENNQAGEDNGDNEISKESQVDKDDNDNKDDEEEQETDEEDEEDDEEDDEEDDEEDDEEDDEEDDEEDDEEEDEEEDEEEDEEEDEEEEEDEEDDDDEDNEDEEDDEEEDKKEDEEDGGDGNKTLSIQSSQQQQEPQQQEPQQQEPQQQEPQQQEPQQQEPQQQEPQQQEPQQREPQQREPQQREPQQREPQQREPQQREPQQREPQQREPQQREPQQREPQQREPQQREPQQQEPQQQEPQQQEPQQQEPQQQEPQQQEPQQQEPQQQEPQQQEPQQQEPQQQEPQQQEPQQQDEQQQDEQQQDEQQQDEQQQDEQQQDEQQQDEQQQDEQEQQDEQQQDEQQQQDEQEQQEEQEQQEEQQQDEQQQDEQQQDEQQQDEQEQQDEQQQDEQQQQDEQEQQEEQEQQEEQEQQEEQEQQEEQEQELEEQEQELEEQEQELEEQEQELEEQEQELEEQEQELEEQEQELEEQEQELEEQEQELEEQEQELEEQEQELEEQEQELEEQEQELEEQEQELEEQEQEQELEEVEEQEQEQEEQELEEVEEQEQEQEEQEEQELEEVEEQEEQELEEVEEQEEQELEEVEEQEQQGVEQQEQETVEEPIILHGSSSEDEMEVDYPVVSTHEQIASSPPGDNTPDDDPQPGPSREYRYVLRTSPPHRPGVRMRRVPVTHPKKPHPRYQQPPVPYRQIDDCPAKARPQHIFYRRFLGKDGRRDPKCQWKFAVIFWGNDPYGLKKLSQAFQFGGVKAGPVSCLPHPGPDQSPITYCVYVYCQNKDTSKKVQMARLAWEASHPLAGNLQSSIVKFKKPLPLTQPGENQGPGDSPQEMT
Vif TR-FRET: HIV-1 Vif–A3G interaction blockers – biochemical, TR-FRET, GST-Vif 1-94, biotin-A3G peptide, dose response retest, primary screen (AID 1117319); TR-FRET GST-Vif / biotin-A3G peptide binding; higher % means a stronger effect; test concentration not given here; strong numbers were not always called active; one-dose inhibition, %; IC50 in µM for titrated hits; actives 0.57% (n = 260,000);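 active = above the screen mean plus three standard deviations and confirmed in dose response; inconclusive = results disagree or hit not tested in dose response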;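 also: Vif residues 1-94 fused to GST binding biotinylated APOBEC3G peptide 110-148; 0% = full assay without inhibitor and 100% = GST in place of GST-Vif; retest series ran down from 100 µM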
An asterisk follows results filed as active; ? = inconclusive; / = no result given.

Short forms: A = AF4-AF9 inh; B = Calb FLC; C = T cruzi repl; D = Beta cell apopt; E = RanGTP-Impb inh; F = A1 inh; G = LANA-H2B inh; H = Vif TR-FRET
1. COc1ccc(CN2CCC(n3nccc3NC(=O)C3CCCC3)CC2)cc1
  A = 6.0	B = -2.1	C = 31.4	D = -4.8	E = 0.5	F = 2.3	G = -0.3	H = -1.2%

2. CCOC(=O)c1ccc(N2CSC3=C(C#N)C(c4cccs4)CC(=O)N3C2)cc1 (stereo not given)
  A = 1.2	B = -3.0	C = 12.3	D = -5.4	E = 2.2	F = 0.4	G = 12.3	H = 8.1%

3. CCc1cc2c(SCc3nc4sc(C(C)=O)c(C)c4c(=O)[nH]3)ncnc2s1
  A = 3.8	B = -0.3	C = -9.5	D = 0.1	E = -3.5	F = -0.3	G = -2.8	H = -1.6%

4. COc1ccc(NC(=S)NC(NC(=O)C(C)C)C(Cl)(Cl)Cl)c([N+](=O)[O-])c1 (stereo not given)
  A = /	B = -9.6	C = 5.4	D = 1.4	E = 4.4	F = -1.1	G = -0.9	H = -7.1%

5. CCN(CC)CCC(=O)Nc1ccc2c(c1)N(C(=O)CN(CC)CC)c1ccccc1CC2
  A = /	B = 3.5	C = 21.6	D = 1.6	E = 0.0	F = 0.3	G = /	H = -6.8%

6. Cc1ccc(NC(=S)NNC(=O)c2ccccc2OC(F)F)cc1
  A = /	B = 2.5	C = -25.1	D = /	E = -1.1	F = 0.5	G = 2.2	H = 1.7%

7. Fc1ccccc1N1CCN(Cc2nc(-c3ccccc3)no2)CC1
  A = 1.2	B = 1.9	C = -22.2	D = -3.3	E = 7.4	F = 0.3	G = 3.5	H = 1.1%

8. CCC(=O)c1ccc(OCC(=O)NCc2ccccc2CN2CCCC2)cc1
  A = -0.8	B = /	C = /	D = -6.2	E = /	F = 0.3	G = 2.6	H = /

9. O=c1[nH]c(C2CCN(S(=O)(=O)c3ccc4c(c3)OCCO4)CC2)nc2c1nnn2Cc1cccc(F)c1
  A = -3.4	B = -5.5	C = 1.0	D = /	E = -0.8	F = 1.5	G = -3.1	H = /

10. Cc1ccc(C(=O)CN2C(=O)NC3(CCc4ccccc43)C2=O)s1 (stereo not given)
  A = -7.6	B = /	C = /	D = -4.7	E = /	F = 1.1	G = -3.3	H = /

11. COC(=O)c1ccc(NC(=O)c2cccc(NC(=O)c3ccco3)c2)cc1
  A = -1.1	B = 12.0	C = 8.0	D = -7.6	E = -1.4	F = -1.6	G = 2.3	H = 2.2%

12. Cc1cccc(N(Cc2ccccc2)C(=O)c2cccc(S(=O)(=O)N3CC(C)OC(C)C3)c2)c1 (stereo not given)
  A = 1.4	B = 7.2	C = 32.5	D = /	E = 0.5	F = 0.2	G = 1.0	H = 5.2%

13. O=C(O)CCCn1c(=S)[nH]c2c(sc3ccc([N+](=O)[O-])cc32)c1=O
  A = 1.6	B = 4.6	C = -11.9	D = 2.1	E = 0.5	F = -0.1	G = 0.3	H = /

14. COc1ccc(NC(=O)c2cc3ccccc3o2)cc1S(=O)(=O)N1CCCCC1
  A = 1.9	B = /	C = /	D = -4.5	E = /	F = 0.6	G = -1.9	H = 3.3%

15. Cc1ccc(NC(=O)C2CCCN(S(=O)(=O)c3cccnc3)C2)cc1C (stereo not given)
  A = 0.2	B = 2.7	C = 3.9	D = 2.7	E = 5.2	F = 0.8	G = -4.3	H = /

16. COc1ccc(CCn2c(C)cc(C(=O)CN3C(=O)C(=O)N(Cc4ccco4)C3=O)c2C)cc1
  A = -1.7	B = /	C = /	D = -8.7	E = /	F = -1.7	G = 2.7	H = -2.6%

17. CC1C=Cc2ccccc2N1C(=O)c1ccccc1 (stereo not given)
  A = 5.9	B = 9.3	C = 4.6	D = -8.6	E = ?	F = -0.1	G = 2.1	H = 6.4%

18. O=C(NCCC1=CCCCC1)c1ccc(Cl)c(S(=O)(=O)N2CCOCC2)c1
  A = /	B = -4.7	C = 5.1	D = 2.4	E = -2.3	F = 1.0	G = -5.7	H = -5.2%

19. O=C(/C=C/c1ccc(Cl)cc1)Nc1ccc(S(=O)(=O)Nc2ncccn2)cc1
  A = -10.1	B = -10.3	C = -5.5	D = -3.4	E = -2.7	F = 1.0	G = -1.0	H = 8.0%

20. COC(=O)c1cc(=O)n(-c2ccccc2)c(=Nc2ccccc2)s1
  A = 28.1*	B = -8.2	C = 16.2	D = -2.1	E = 2.6	F = -0.6	G = 1.8	H = -2.1%

21. O=S(=O)(Nc1cccc(S(=O)(=O)N2CCOCC2)c1)c1ccc(Cl)s1
  A = -1.0	B = -0.1	C = -2.2	D = /	E = -3.0	F = -0.4	G = -2.7	H = 0.0%

22. Cc1ncc(S(=O)(=O)c2ccc(Cl)cc2)c(N)n1
  A = -0.3	B = -13.4	C = 11.4	D = /	E = 1.1	F = 0.7	G = -1.7	H = /

23. CCOc1ccc2c(c1)-c1c(ssc1=S)C(C)(C)N2C(=O)CSC1=NCCS1
  A = /	B = -5.9	C = 20.6	D = -4.2	E = -4.1	F = 0.8	G = -1.0	H = 0.0%

24. CC(=O)Nc1ccc(S(=O)(=O)NCCC(=O)N2CCN(C(c3ccccc3)c3ccccc3)CC2)cc1
  A = 1.8	B = -4.5	C = 0.0	D = 1.3	E = /	F = -0.6	G = 6.9	H = -0.3%

25. CCCc1nc(NC(C)=O)c(C#N)c(-c2ccco2)c1CC
  A = /	B = 42.5	C = /	D = -6.5	E = -2.9	F = -0.5	G = -0.1	H = ?

Looked up one by one from above, two records:
Short forms: A = AF4-AF9 inh; B = Calb FLC; C = T cruzi repl; D = Beta cell apopt; E = RanGTP-Impb inh; F = A1 inh; G = LANA-H2B inh; H = Vif TR-FRET
1. COc1ccc(CN2CCC(n3nccc3NC(=O)C3CCCC3)CC2)cc1
  A = 6.0	B = -2.1	C = 31.4	D = -4.8	E = 0.5	F = 2.3	G = -0.3	H = -1.2%

9. O=c1[nH]c(C2CCN(S(=O)(=O)c3ccc4c(c3)OCCO4)CC2)nc2c1nnn2Cc1cccc(F)c1
  A = -3.4	B = -5.5	C = 1.0	D = /	E = -0.8	F = 1.5	G = -3.1	H = /

Remaining list, next part
Short forms: A = AF4-AF9 inh; B = Calb FLC; C = T cruzi repl; D = Beta cell apopt; E = RanGTP-Impb inh; F = A1 inh; G = LANA-H2B inh; H = Vif TR-FRET
26. N#Cc1c(-c2ccccc2)nc(N2CCOCC2)[nH]c1=O
  A = /	B = 36.1	C = -13.6	D = 4.2	E = 1.7	F = 0.0	G = -1.9	H = ?

27. CCOC(=O)c1ccc(NC(=O)N2C3CCCC2CC(NC(C)=O)C3)cc1 (stereo not given)
  A = -1.2	B = -3.5	C = -7.1	D = -4.1	E = 0.7	F = 0.7	G = -4.5	H = -0.2%

28. COc1cc(/C=C(\C#N)c2[nH]nc(N)c2C#N)cc(OC)c1O
  A = /	B = 6.4	C = 5.2	D = 12.0	E = -3.1	F = 0.2	G = -0.1	H = 5.7%

29. CC(Cc1ccccc1)C(=O)N(C)Cc1ccccc1 (stereo not given)
  A = -1.9	B = -22.7	C = -10.8	D = -7.4	E = -1.5	F = 0.8	G = 3.7	H = -7.7%

30. CCC(=O)c1c[nH]c(C(=O)NCC2CCCO2)c1 (stereo not given)
  A = /	B = -2.0	C = -10.3	D = 0.7	E = -2.0	F = 0.5	G = 2.0	H = 1.5%

31. Cc1cccc2c(=O)c(-c3ccc(Cl)cc3)c(NC(=O)c3ccco3)oc12
  A = -1.6	B = -4.1	C = 1.7	D = 2.0	E = 3.6	F = 0.1	G = -1.1	H = /

32. CC(=O)c1cc2c(cc1NS(=O)(=O)c1ccccc1F)OCO2
  A = 1.5	B = 11.3	C = 9.9	D = 0.7	E = -8.3	F = -0.3	G = -2.7	H = 8.0%

33. O=C(Nc1cccc(S(=O)(=O)N2CCOCC2)c1)c1ccco1
  A = /	B = -2.6	C = 1.5	D = -14.0	E = 0.1	F = 0.3	G = 3.8	H = -2.3%

Among those listed so far, 2 have a nitro group on carbon.
Short forms: A = AF4-AF9 inh; B = Calb FLC; C = T cruzi repl; D = Beta cell apopt; E = RanGTP-Impb inh; F = A1 inh; G = LANA-H2B inh; H = Vif TR-FRET
4. COc1ccc(NC(=S)NC(NC(=O)C(C)C)C(Cl)(Cl)Cl)c([N+](=O)[O-])c1 (stereo not given)
  A = /	B = -9.6	C = 5.4	D = 1.4	E = 4.4	F = -1.1	G = -0.9	H = -7.1%

13. O=C(O)CCCn1c(=S)[nH]c2c(sc3ccc([N+](=O)[O-])cc32)c1=O
  A = 1.6	B = 4.6	C = -11.9	D = 2.1	E = 0.5	F = -0.1	G = 0.3	H = /
